UCH37 inh: inhibitors of human UCH37 deubiquitinase, primary screen, biochemical, Ub-AMC cleavage, fluorescence; 330,000 compounds, 0.33% hits; purified proteasome/UCH37; inhibition, % (concentration not given with the values); AID 588478, 2011;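 active means mean of two replicates above 20%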;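 further: 0% = compound-free wells with enzyme and 100% = wells lacking proteasome; stock transfer was 100 nL into about 20 µL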
Target sequence (Q9Y5K5 whole entry, looked up): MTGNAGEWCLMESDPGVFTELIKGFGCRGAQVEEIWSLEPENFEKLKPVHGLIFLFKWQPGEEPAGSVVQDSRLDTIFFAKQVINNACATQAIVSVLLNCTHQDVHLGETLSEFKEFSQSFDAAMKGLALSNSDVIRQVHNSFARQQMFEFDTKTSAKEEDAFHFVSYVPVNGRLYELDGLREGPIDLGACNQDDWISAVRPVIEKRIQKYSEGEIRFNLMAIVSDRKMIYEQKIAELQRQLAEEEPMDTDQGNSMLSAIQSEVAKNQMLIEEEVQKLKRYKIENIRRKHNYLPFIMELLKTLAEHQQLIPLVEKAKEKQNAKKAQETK
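Reagent: Ub-AMC substrate; assay system: Proteasome-associated human UCH37 deubiquitinase; controls: no-proteasome and no-compound wells; read-out: % inhibition of Ub-AMC cleavage fluorescence; timing: 30 min preincubation with enzyme, 25 min cleavage at room temperature; signal: AMC fluorescence from Ub-AMC cleavage, excitation 355 nm, emission 460 nm; buffer or medium: Tris-HCl pH 7.4 plus ovalbumin, ATP-MgCl2, DTT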
Ecoli growth: E. coli growth inhibition, primary screen, OD600. Escherichia coli growth, 23 h; stronger effect = lower value. OD600 absorbance (concentration not given with the values). 330,000 compounds, 0.21% hits;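 active means OD600 absorbance below the run mean of sample wells minus 3.6 SD, in any replicate, cut at about 0.56 in these data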;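 further: stock transfer was 300 nL into about 60 µL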
Starred values were filed as active, the others as inactive; i = inactive.

entry	molecule	Ecoli growth	UCH37 inh
1	Cc1ccsc1C=NNC(=O)c1nnn(-c2nonc2N)c1CN(C)c1ccccc1	0.654	4.7
2	COc1ccc2cc(C=NNC(=O)CN(c3ccccc3)S(=O)(=O)c3ccccc3)c(Cl)nc2c1	0.736	-366.7
3	CC(CC(=O)Nc1ccc(C)c(Cl)c1)=NNC(=O)c1ccccn1	0.7	0.6
4	Cn1c2ccccc2c2cc(C=NNC(=O)c3cc(O)cc(O)c3)ccc21	0.688	-86.0
5	CCOc1cc(C=NNC(=O)c2ccc(=O)n(C)c2)ccc1O	0.714	8.5
6	O=C1CSC(=S)N1N=Cc1ccc(O)c(O)c1O	0.679	14.7
7	Clc1ccc(NN=Cc2ccncc2)cc1Cl	0.641	5.6
8	O=C(NN=C(Cc1ncc[nH]1)c1ccccc1)c1cccnc1	0.675	3.5
9	Cc1cccc(S(=O)(=O)NN=c2sc3ccccc3n2C)c1	0.728	4.2
10	CN(C)N=C1CCS(=O)(=O)c2sccc21	0.663	3.6
11	O=C(NN=C(c1ccccc1)c1ccccn1)c1cccc([N+](=O)[O-])c1	0.701	1.1
12	CC(=NNc1nc(-c2cc(C)ccc2C)cs1)c1cc2c(ccc3ccccc32)oc1=O	0.697	-27.6
13	COc1ccc(C=NNC(=O)CNC(=O)C(c2ccccc2)c2ccccc2)cc1[N+](=O)[O-]	0.663	1.3
14	O=C(CC(=O)NN=Cc1c(F)cccc1Cl)NCc1ccccc1	0.683	0.5
15	COc1ccccc1/C=C/C=NN1CCN(Cc2ccc(Cl)cc2)CC1	0.709	5.6
16	Cc1cc(C(=O)NN=C2CCCC(=O)C2)c2ccccc2n1	0.659	3.8
17	COc1ccc(NC(=O)C2Cc3cccc(OC)c3OC2=NO)cc1 (stereo unspecified)	0.661	0.9
18	CC(=O)Nc1sc(NN=Cc2ccccc2F)nc1-c1cccs1	0.649	-62.8
19	C=CCc1c(C)nc(-c2ccccc2)nc1NN=C(C)c1ccc(N)cc1	0.696	5.3
20	CC(CCC(C)C)=NNC(=S)NCc1ccccc1	0.697	-0.5
21	CCOC(=O)c1ccc(NC(=NS(=O)(=O)c2ccccc2C)c2ccccc2)cc1	0.739	0.5
22	O=[N+]([O-])c1ccc(O)c(C=NN=C2c3ccccc3-c3ccccc32)c1	0.709	5.4
23	COc1ccccc1/C=C/C=NNC(=O)CCC1C(=O)NN=C1C (stereo unspecified)	0.692	1.6
24	CCOc1cc(C=NO)cc(Br)c1OCC(=O)NCc1ccccc1	0.663	5.7
25	C=CCNC(=S)NN=Cc1ccc(-c2cc(Cl)ccc2Cl)o1	0.704	-27.7
26	Nc1nnc(CC(=O)NN=Cc2ccc(-c3ccccc3Cl)o2)s1	0.673	-1.3
27	COc1ccc(NCC(=O)NN=Cc2ccc3c(c2)OCCO3)cc1	0.684	4.4
28	CCCCCCCCC(=O)NN=Cc1ccccn1	0.67	3.2
29	Cc1ccc(CN2CCN(N=C/C(Br)=C/c3ccccc3)CC2)cc1	0.712	0.6
30	CC1S/C(=N/N=Cc2cccc([N+](=O)[O-])c2)NC1=O (stereo unspecified)	0.66	2.6
31	CN(C)C=Nc1cc(=O)[nH]c(=O)n1Cc1ccccc1	0.671	1.6
32	Cc1nn(-c2ccccc2)c(Cl)c1C=NNC(N)=O	0.639	1.3
33	CC(/C=C/c1ccco1)=NNC(=O)c1cc(C)[nH]n1	0.67	6.0
34	Cc1scc(C(=O)NN=Cc2ccco2)c1C	0.683	9.0
35	CC(=NNc1ccccc1)C(=NO)C(=O)Nc1ccccc1	0.744	4.8
36	CN(C)C=Nc1ncc(-c2ncc(C(F)(F)F)cc2Cl)cn1	0.693	i
37	Cc1nc2ccccc2c(=O)n1N=Cc1ccccc1Cl	0.674	1.5
38	O=C(NN=Cc1cccc(Cl)c1)C1CCCC1	0.655	-0.1
39	CC(=NNC(=O)Cc1ccc(F)cc1)c1ccc(O)cc1	0.676	-0.6
40	O=C(NCc1ccncc1)C(=NO)c1ccccc1	0.775	0.4
41	CCOc1ccc(C=NNC(=O)COc2ccccc2-c2ccccc2)cc1	0.74	2.3
42	Cc1cccc(NC2=CC(=NS(=O)(=O)c3cccs3)c3ccccc3C2=O)c1	0.712	50.2*
43	COc1ccccc1C(=O)NN=C(C)CC(=O)Nc1ccc(Cl)cn1	0.711	3.0
44	Cc1cc(C)nc(NN=Cc2ccccc2OCc2cccc(Br)c2)n1	0.713	4.5
45	CCOC(=O)C=c1sc(=Cc2ccccc2C)c(=O)n1CC(=O)NCc1ccc2c(c1)OCO2	0.74	-110.4
46	O=C(NN=Cc1cccc([N+](=O)[O-])c1)c1cc(-c2ccc3c4c(cccc24)CC3)n[nH]1	0.701	2.4
47	Cc1ccc(CN2CCN(N=Cc3cc(Br)cc(Br)c3O)CC2)cc1	0.769	4.6
48	Clc1cccc(Cl)c1CON=Cc1cccs1	0.7	3.0
49	CCn1c(C)nc2cc(C(=O)NN=Cc3ccccc3)ccc21	0.67	1.0
50	COc1ccc(Br)cc1C(C)=NNC1=NCCN1	0.67	2.3
51	O=C(CCCC(=O)NN=Cc1ccccc1C(=O)O)NN=Cc1ccccc1C(=O)O	0.689	5.4
52	CC(=NNC(=O)c1[nH]c2c([N+](=O)[O-])cc(C)cc2c1-c1ccccc1)c1cccnc1	0.74	1.2
53	COC(=O)c1[nH]c2cc(OC)c(OC)cc2c1C=NNc1ccccc1	0.659	-63.2
54	CC1CCCC(C)N1N=Cc1cc(Br)cc(Br)c1O (stereo unspecified)	0.686	-0.4
55	COc1ccc(C=Nc2nc3ccccc3n2C)cc1OC	0.659	6.9
56	CC(=O)Nc1sc(NN=Cc2ccc(O)cc2)nc1-c1ccc(C)cc1	0.704	-21.4
57	Fc1c(F)c(C(F)(F)F)c(F)c(F)c1NN=Cc1cccs1	0.705	5.3
58	CC1(CC(=O)NN=Cc2cc(Br)c(O)cc2O)OCCO1	0.643	-0.9
59	COc1ccc(C(=O)NN=Cc2cn[nH]c2-c2ccc(OC)cc2OC)cc1	0.641	-5.6
60	CCOc1ccc(-c2cc(C(=O)NN=C(C)c3cccnc3)c3ccccc3n2)cc1	0.724	-43.4

Record cards, as listed above.
`COc1ccc(C=Nc2nc3ccccc3n2C)cc1OC` is entered as Ecoli growth: 0.659; UCH37 inh: 6.9
`CC(=NNC(=O)Cc1ccc(F)cc1)c1ccc(O)cc1` is entered as Ecoli growth: 0.676; UCH37 inh: -0.6

Next part.
entry	molecule	Ecoli growth	UCH37 inh
61	COc1ccc(N(C(C)C(=O)NN=C(C)C(C)(C)C)S(C)(=O)=O)cc1 (stereo unspecified)	0.692	0.7
62	CN(C)c1ccc(/C=C(/NC(=O)c2ccccc2)C(=O)NN=Cc2ccc([N+](=O)[O-])c(O)c2)cc1	0.648	20.2*
63	O=C(CSCc1ccccc1)NN=Cc1cc2c(cc1Br)OCO2	0.701	2.8
64	NC(=NO)c1nc(N2CCCC2)nc(N(c2ccccc2)c2ccccc2)n1	0.634	0.5
65	CCOc1cc(C=NNc2nc(C)cc(=O)[nH]2)ccc1O	0.673	6.0
66	CC(=NNC(=O)CCc1ccc(S(=O)(=O)N2CCOCC2)cc1)c1ccccc1Cl	0.696	3.9
67	Cc1[nH]n(-c2ccccc2)c(=O)c1C=NNC(=O)COc1ccccc1[N+](=O)[O-]	0.65	8.2
68	NC(=O)c1cc2ccccc2oc1=NNC(=O)c1cccc(Cl)c1	0.722	1.7
69	CC(=O)NN=C(c1ccccc1)C(O)c1ccccc1 (stereo unspecified)	0.679	2.2
70	COc1ccc2[nH]cc(C=NNS(=O)(=O)c3ccc(C)cc3)c2c1	0.666	6.4
71	Cc1ccc(C=Nn2cnc3sc(C)c(C)c3c2=O)o1	0.682	9.2
72	CC(CC(=O)NC12CC3CC(CC(C3)C1)C2)=NNC(=O)Cc1cccs1	0.702	-1.2
73	Cc1cc(=O)[nH]c(NN=Cc2ccc(O)c(O)c2)n1	0.603	8.4
74	Nc1nonc1C(=NO)N1CCCC1	0.704	1.8
75	Cc1c(NC(=S)NN=Cc2cccc(O)c2)c(=O)n(-c2ccccc2)n1C	0.706	5.8
76	Cc1ccc(SCc2c(C(=O)NN=Cc3ccncc3)nnn2-c2nonc2N)cc1	0.654	2.5
77	NC(Cc1ccc([N+](=O)[O-])cc1)=NOC(=O)C(c1ccccc1)c1ccccc1	0.66	-0.8
78	CC(=NNC(=O)c1ccc(Cn2cc(Br)cn2)o1)c1cccc(NC(=O)C(C)C)c1	0.62	1.6
79	CCc1n[nH]c(=S)n1N=Cc1ccc2c(c1)OCO2	0.746	3.2
80	O=C(NN=Cc1cn[nH]c1-c1ccccc1)c1ccc([N+](=O)[O-])cc1	0.72	4.8
81	CCSc1nncn1N=Cc1ccc(OC)c(OC)c1	0.712	-0.1
82	O=C(CON=Cc1ccccc1OC(F)F)NC1CCCCC1	0.67	-0.6
83	O=C(NN=Cc1ccc2c(c1)OCO2)C1COc2ccccc2O1 (stereo unspecified)	0.68	2.7
84	CCc1c(O)c(C(C)=NO)c(=O)n(-c2ccccc2)c1-c1ccccc1	0.721	2.5
85	COc1cccc(C=NNc2ncnc(N)c2[N+](=O)[O-])c1OC	0.687	5.3
86	COc1cccc(C=NNC(=O)C(=O)N2CCCC2)c1OC	0.746	0.2
87	CC1CN(CC(=NO)C23CC4CC(CC(C4)C2)C3)CC(C)O1 (stereo unspecified)	0.676	1.5
88	O=C(CCN1CCN(C(c2ccccc2)c2ccccc2)CC1)NN=Cc1ccc(O)cc1O	0.693	-3.7
89	O=C(CC(=O)NC1CCCCC1)NN=Cc1cccc2ccccc12	0.745	-2.5
90	O=C(NN=Cc1ccc2c(c1)OCO2)c1cc(-c2ccco2)nc2ccccc12	0.7	-63.9

Copied from above, compounds 61 to 66
entry	molecule	Ecoli growth	UCH37 inh
61	COc1ccc(N(C(C)C(=O)NN=C(C)C(C)(C)C)S(C)(=O)=O)cc1 (stereo unspecified)	0.692	0.7
62	CN(C)c1ccc(/C=C(/NC(=O)c2ccccc2)C(=O)NN=Cc2ccc([N+](=O)[O-])c(O)c2)cc1	0.648	20.2*
63	O=C(CSCc1ccccc1)NN=Cc1cc2c(cc1Br)OCO2	0.701	2.8
64	NC(=NO)c1nc(N2CCCC2)nc(N(c2ccccc2)c2ccccc2)n1	0.634	0.5
65	CCOc1cc(C=NNc2nc(C)cc(=O)[nH]2)ccc1O	0.673	6.0
66	CC(=NNC(=O)CCc1ccc(S(=O)(=O)N2CCOCC2)cc1)c1ccccc1Cl	0.696	3.9

Next part
entry	molecule	Ecoli growth	UCH37 inh
91	COc1ccc(-c2cc(C(=O)NN=C(C)c3cccnc3)c3ccccc3n2)c(OC)c1	0.726	-22.7
92	COc1ccc(NC(=O)C(=O)NN=C(C)CC(=O)Nc2cc(C)ccn2)c(OC)c1	0.697	5.2
93	CC(=NNc1ccc([N+](=O)[O-])cc1[N+](=O)[O-])c1ccc(-n2nncc2C(C)(C)C)cc1	0.722	9.2
94	CC1(C)CC(=O)C2=C(C1)NC(=O)CC2C(=O)NCc1ccc(F)cc1 (stereo unspecified)	0.696	3.5
95	Cc1nnc(SCC(=O)NN=Cc2cc(Cl)c(O)c(Cl)c2)s1	0.703	11.7
96	CCn1c(SCC(=O)NN=Cc2ccccc2OCC(=O)O)nnc1-c1ccccc1	0.722	3.2
97	COc1cccc2[nH]c3c(N4CC(C)CC(C)C4)ncnc3c12 (stereo unspecified)	0.613	-38.9
98	Cc1cc(C)nc(SCC(=O)NN=C/C(Br)=C/c2ccccc2)n1	0.691	3.5
99	COc1ccccc1C=NNC(=O)c1sc(C)nc1C	0.698	4.8
100	Cc1nn(C)cc1C=NNC(=O)c1ccc2c(c1)OCO2	0.737	4.8
101	CC(=O)Nc1ccc(C(C)=NNC(=O)c2ccc(F)cc2)cc1	0.676	1.6
102	O=C(Cc1ccc(Cl)cc1)NN=Cc1cccc(O)c1	0.637	2.5
103	O=C(NN=Cc1cc([N+](=O)[O-])ccc1O)C1C2CCCCC21 (stereo unspecified)	0.695	2.3
104	Nc1nonc1-n1nnc(C(=O)NN=Cc2ccc3c(c2)OCO3)c1-c1ccccc1	0.691	-77.0
105	CC(C)(C)OC(=O)N1CCC[C@H]1C(=O)NN=Cc1cccc2nccnc12	0.65	3.9
106	O=[N+]([O-])c1ccc(NN=Cc2ccccc2)c(F)c1	0.69	-0.6
107	Cc1ccsc1C=NNC(=O)c1ccc(Cn2cc(Br)cn2)o1	0.69	0.8
108	COc1cc(C=NNC(=O)CNC(=O)c2ccncc2)ccc1O	0.69	1.4
109	Cc1ccc(C(=O)NN=Cc2ccc(OC(=O)c3ccccc3Cl)cc2)cn1	0.636	2.3

Screening data as filed in PubChem.

Only part of the results is shown (hit frequency here may not be typical).
